CHT PAM – allosterically activates the human high affinity choline transporter; actives 0.49% (n = 310,000); CHT-expressing cells, membrane potential dye, choline EC20; hits give high values; LV-AA mutant CHT in HEK293 cells; B-score at 10 µM; Q9GZV3;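 active means initial fluorescence not abnormally high and integrated response B-score, plate-corrected, over 3 SD above library mean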
Target sequence (Q9GZV3 whole entry, looked up): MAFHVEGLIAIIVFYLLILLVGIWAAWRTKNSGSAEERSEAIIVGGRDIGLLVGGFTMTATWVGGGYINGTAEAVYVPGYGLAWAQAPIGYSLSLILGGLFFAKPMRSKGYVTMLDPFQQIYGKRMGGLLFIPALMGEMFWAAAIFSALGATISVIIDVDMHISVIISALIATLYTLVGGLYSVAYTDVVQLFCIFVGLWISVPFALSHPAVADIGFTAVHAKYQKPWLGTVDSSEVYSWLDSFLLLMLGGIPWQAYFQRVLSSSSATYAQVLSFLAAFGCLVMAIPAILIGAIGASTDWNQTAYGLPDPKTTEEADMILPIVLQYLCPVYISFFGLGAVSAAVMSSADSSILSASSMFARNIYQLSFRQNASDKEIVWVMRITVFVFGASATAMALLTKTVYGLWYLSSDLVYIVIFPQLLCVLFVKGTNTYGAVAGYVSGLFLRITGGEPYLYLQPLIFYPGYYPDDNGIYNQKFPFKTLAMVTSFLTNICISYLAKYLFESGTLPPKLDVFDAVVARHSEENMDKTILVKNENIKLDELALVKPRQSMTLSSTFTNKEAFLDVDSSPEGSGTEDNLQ
Calls only. This is a subset, and most or all hits are left out here.

`COCCNc1nc(N)c([N+](=O)[O-])c(NCC2CCCO2)n1` (stereo unspecified) gave CHT PAM inactive.
Screening O=C(CCNS(=O)(=O)c1cccs1)N1CCc2ccccc2C1 returned CHT PAM inactive.
Screening Cc1ccc(S(=O)(=O)N2CCCC(C(=O)NCc3ccco3)C2)cc1Cl (stereo unspecified) returned CHT PAM inactive.
Screening C/C(=C\c1ccccc1)CN1CCN(c2ccccc2)CC1 returned CHT PAM inactive.
For CCOC(=O)CNC(=O)c1ccccc1 the results were CHT PAM inactive.
Screening CCS(=O)(=O)N1CCN(c2c(Cl)cccc2[N+](=O)[O-])CC1 returned CHT PAM inactive.
Cc1ccc2nc(C)cc(N/N=C/c3cccnc3)c2c1 was read as CHT PAM inactive.
Screening Cc1nn(-c2ccccc2)c2sc(C(=O)N3CCCCC3)cc12 returned CHT PAM inactive.
Screening COc1ccc(N(CC(=O)N2CCOCC2)S(C)(=O)=O)cc1 returned CHT PAM inactive.
Screening CCN1C(N(C)C)=NC[C@@H]1Cc1ccccc1 returned CHT PAM inactive.
Screening Cc1noc(C)c1COC(=O)CCCc1nc2ccccc2s1 returned CHT PAM inactive.
For CCc1cc2c(=O)c(-c3nc4ccccc4n3C)c(C)oc2c(CN2CCCCC2)c1O the results were CHT PAM inactive.
Screening Cn1ccc2cc(NC(=O)Nc3cccnc3)ccc21 returned CHT PAM inactive.
CCOc1ccc(N(CC(=O)NC2CCCC2)C(=O)c2ccc(C)s2)cc1 was read as CHT PAM inactive.
For Fc1ccc(/C=N/Nc2nc3ccccc3[nH]2)cc1F the results were CHT PAM inactive.
`O=C1N/C(=C/c2ccc(N3CCOCC3)o2)C(=O)N1c1ccccc1` gave CHT PAM inactive.
For COC(=O)c1[nH]c2ccc(C)cc2c1NC(=O)CN1CCN(c2ccc(F)cc2)CC1 the results were CHT PAM inactive.
Screening Cc1ccc(CS(=O)(=O)CCC(=O)N2CCOCC2)cc1 returned CHT PAM inactive.
COc1cc(-c2nc3ccc4ccccc4c3c3c2CCC3)cc(OC)c1OC was read as CHT PAM inactive.
Screening Cc1cc(C=O)c(C)n1-c1cccc(C(=O)O)c1 returned CHT PAM inactive.
Cc1ccc(Nc2ncc3c(n2)CC(C)(C)CC3=O)cc1 was read as CHT PAM inactive.
For COC(=O)c1ccc2c(=O)n(CCCCCC(=O)NCc3ccccn3)c(=O)[nH]c2c1 the results were CHT PAM inactive.
For Cc1ccc(S(=O)(=O)N2CCOCC2)cc1C(=O)NCCN1C(=O)S/C(=C\c2ccccc2Cl)C1=O the results were CHT PAM inactive.
For CCOC(=O)C1=C(N)Oc2cc(C)[nH]c(=O)c2C1c1ccncc1 (stereo unspecified) the results were CHT PAM inactive.
Screening O=C(NCCS(=O)(=O)NCc1ccc(F)cc1)c1ccccc1 returned CHT PAM inactive.
For CCOc1ccc(C(=O)CCC(=O)N(CC)CC(=O)NCc2ccc(Cl)cc2)cc1 the results were CHT PAM inactive.
`COCOc1cc(O)c(C(=O)/C=C/c2ccc(OCOC)c(OCOC)c2)c(OCOC)c1` gave CHT PAM inactive.
Screening CCCCn1c(N)c(N(CCOC)C(=O)CCNC(=O)c2ccc(Br)cc2)c(=O)[nH]c1=O returned CHT PAM inactive.
For O=c1c2ccccc2nc(SCCN2CCOCC2)n1CCc1ccccc1 the results were CHT PAM inactive.
`O=C(NC1CC1)c1ccc2c(c1)ncn2C1CCCC1` gave CHT PAM inactive.
CNC(=O)/C(=C\c1ccc2c(c1)OCO2)NC(=O)c1ccc(Br)cc1 was read as CHT PAM inactive.
For O=C(NC1CCCCC1)NC12CC3CC(CC(C3)C1)C2 the results were CHT PAM inactive.
CC(=O)c1c(C)[nH]c(C(=O)Nc2ccc(S(=O)(=O)N(C)C)cc2)c1C was read as CHT PAM inactive.
Screening O=C(NCCc1csc(-c2cccnc2)n1)c1cccc(Cl)c1 returned CHT PAM inactive.
`O=C(Nc1ccc(F)cc1)N1CCN(c2ncccn2)CC1` gave CHT PAM inactive.
`Cc1[nH]nc(Nc2ccc(O)cc2)c1[N+](=O)[O-]` gave CHT PAM inactive.
COCc1cc(C)nc2sc(C(=O)NN)c(-n3cccc3)c12 was read as CHT PAM inactive.
For CC1=[N+](CC(=O)NC(C)(C)C)CCc2ccccc21 the results were CHT PAM inactive.
CCOC(=O)N1CCC(Nc2ccc(N3C(=O)C4CCCCC4C3=O)cc2[N+](=O)[O-])CC1 (stereo unspecified) was read as CHT PAM inactive.
`Cc1ccc(C(=O)COC(=O)c2cnccn2)cc1` gave CHT PAM inactive.
`N=c1c(S(=O)(=O)c2ccccc2)cc2c(=O)n3ccccc3nc2n1Cc1ccco1` gave CHT PAM inactive.
`COc1cccc(NC(=O)C2CCN(S(=O)(=O)c3ccc4[nH]c(=O)oc4c3)CC2)c1` gave CHT PAM inactive.
Screening CCOc1ccc2nc3c(cc2c1)CN(CCOC)C(=NCCOC)S3 returned CHT PAM inactive.
Screening COC(=O)c1ccc2nc(NC(=O)C3CC3)sc2c1 returned CHT PAM inactive.
For Cc1ccc(N=C2NC(=O)/C(=C/c3cccnc3)S2)c(C)c1 the results were CHT PAM inactive.
CCN(CC)CCNC(=O)Cn1nc(Cc2ccccc2)c2ccccc2c1=O was read as CHT PAM inactive.
COc1ccc2cc(C3CC(c4ccco4)=NN3S(C)(=O)=O)c(Cl)nc2c1 (stereo unspecified) was read as CHT PAM inactive.
For Cc1cnc(C(=O)Nc2ccccc2C(=O)N2CCOCC2)cn1 the results were CHT PAM inactive.
CCOC(=O)C1=C(C)OC(N)=C(C(=O)OCC)C1c1cccnc1 (stereo unspecified) was read as CHT PAM inactive.
For Cc1ccc(CNC(=O)CSCc2ccccc2F)cc1 the results were CHT PAM inactive.
Screening Cc1ncc(CN2CCCC(C(=O)Nc3ccc(-c4ccco4)cc3)C2)n1C (stereo unspecified) returned CHT PAM inactive.
For O=C(CNCc1cccc2ccccc12)Nc1ccccc1[N+](=O)[O-] the results were CHT PAM inactive.
Screening Cc1ccc(C)c(S(=O)(=O)N2CCN(CC(=O)Nc3ccc([N+](=O)[O-])cc3)CC2)c1 returned CHT PAM inactive.
For CC1(C)Cc2c(ccc3ccccc23)/C(=C/C#N)N1 the results were CHT PAM inactive.
Screening COc1ccc([N+](=O)[O-])cc1NC(=O)c1ccccc1N(C)S(C)(=O)=O returned CHT PAM inactive.
Screening CCOc1cccc(SCc2noc(C(=O)NCCOC)c2C(=O)O)c1 returned CHT PAM inactive.
Screening COc1ccc(NC(=O)C(c2ccccc2)N(C)C(=O)c2ccc(=O)[nH]c2)cc1 (stereo unspecified) returned CHT PAM inactive.
O=C(c1cccc(N2C(=O)C3C4C=CC(C4)C3C2=O)c1)N1CCN(c2ccccc2F)CC1 (stereo unspecified) was read as CHT PAM inactive.
For Cc1ccc(NS(=O)(=O)c2cc(C(=O)N3CCOCC3)ccc2C)cc1 the results were CHT PAM inactive.
N#CCCn1nc(-c2ccccc2)cc1-n1c(C(F)(F)F)nc2ccccc21 was read as CHT PAM inactive.

Random excerpt: 3 entries already listed
N#CCCn1nc(-c2ccccc2)cc1-n1c(C(F)(F)F)nc2ccccc21 was read as CHT PAM inactive.
For O=C(CNCc1cccc2ccccc12)Nc1ccccc1[N+](=O)[O-] the results were CHT PAM inactive.
For Cc1ccc(CNC(=O)CSCc2ccccc2F)cc1 the results were CHT PAM inactive.

Structures above containing a nitro group on carbon, in the order listed:
`COCCNc1nc(N)c([N+](=O)[O-])c(NCC2CCCO2)n1` (stereo unspecified) gave CHT PAM inactive.
Screening CCS(=O)(=O)N1CCN(c2c(Cl)cccc2[N+](=O)[O-])CC1 returned CHT PAM inactive.
`Cc1[nH]nc(Nc2ccc(O)cc2)c1[N+](=O)[O-]` gave CHT PAM inactive.
CCOC(=O)N1CCC(Nc2ccc(N3C(=O)C4CCCCC4C3=O)cc2[N+](=O)[O-])CC1 (stereo unspecified) was read as CHT PAM inactive.
For O=C(CNCc1cccc2ccccc12)Nc1ccccc1[N+](=O)[O-] the results were CHT PAM inactive.
Screening Cc1ccc(C)c(S(=O)(=O)N2CCN(CC(=O)Nc3ccc([N+](=O)[O-])cc3)CC2)c1 returned CHT PAM inactive.
Screening COc1ccc([N+](=O)[O-])cc1NC(=O)c1ccccc1N(C)S(C)(=O)=O returned CHT PAM inactive.

Continued.
Screening CCOC(=O)CN/C=C(\C#N)c1ccc(F)cc1 returned CHT PAM inactive.
O=C(COC(=O)/C=C/c1ccco1)NCc1ccccc1Cl was read as CHT PAM inactive.
Screening Cc1ccc(NCN2C(=O)C(=O)c3ccccc32)nc1 returned CHT PAM inactive.
Cc1ccc(C(=O)CN(C(=O)c2ccc(Cl)cc2)N2C(=O)CCC2=O)cc1 was read as CHT PAM inactive.
`COC(=O)c1ccc(OC(=O)c2ccc(OC)cc2)c(OC)c1` gave CHT PAM inactive.
Screening CCCCOc1ccc(C(=S)N2CCC(C(N)=O)CC2)cc1 returned CHT PAM inactive.
For COc1ccc(/C=N/NC(=O)c2cc[n+]([O-])cc2)cc1OC the results were CHT PAM inactive.
`CCOc1cc(S(=O)(=O)NC2CC(C)(C)NC(C)(C)C2)ccc1F` gave CHT PAM inactive.
Screening CC(CN1CCOCC1)OC(=O)/C=C/c1ccccc1 (stereo unspecified) returned CHT PAM inactive.
For O=C(/C=C/c1ccc(S(=O)(=O)N2CCOCC2)cc1)N(CCO)Cc1ccccc1 the results were CHT PAM inactive.
O=C(CN1C(=O)NC2(CCCC2)C1=O)NCCC1=CCCCC1 was read as CHT PAM inactive.
`O=C(CN(C(=O)c1csnn1)c1ccc2c(c1)OCCO2)NCc1ccc(F)cc1` gave CHT PAM inactive.
`O=C(COC(=O)CCC(NC(=O)OCc1ccccc1)C(=O)OCC(=O)Nc1ccccc1)Nc1ccccc1` (stereo unspecified) gave CHT PAM inactive.
CCN(CC)CCN(C(=O)CCS(=O)(=O)c1ccccc1)c1nc2cc(OC)c(OC)cc2s1 was read as CHT PAM inactive.
`Cc1ccc(-n2nc3c(c2NC(=O)/C=C\c2ccc4c(c2)OCO4)CSC3)c(C)c1` gave CHT PAM inactive.
Screening Cc1cccc(C)c1NC(=S)N/N=C/c1ccc(OCCC(C)C)cc1 returned CHT PAM inactive.
CCn1nc(C)c(CNC(=O)CC2C(=O)NCCN2CC(C)C)c1C (stereo unspecified) was read as CHT PAM inactive.
For O=C(NC1CC1)C1=C[C@@H](C2CC2)C[C@@H](OCc2ccc(CO)cc2)O1 the results were CHT PAM inactive.
For O=C(CN1C(=O)CCC1=O)NCC12CC3CC(CC(C3)C1)C2 the results were CHT PAM inactive.
Screening Cn1c(C(=O)Nc2ccc3c(c2)OCO3)cc2sccc21 returned CHT PAM inactive.
`CCOC(=O)C1=C(C)NC(C)=C(C(=O)OCC)C1c1cn(-c2ccccc2)nc1-c1ccco1` gave CHT PAM inactive.
Screening CCc1ccccc1NC(=S)N1CCN(c2cccc(OC)c2)CC1 returned CHT PAM inactive.
For O=C(CCNS(=O)(=O)c1cccc2nonc12)NC1CCCCC1 the results were CHT PAM inactive.
CCOc1ccc(N2C(=O)/C(=C/c3cccs3)N(CC(=O)OC)C2=S)cc1 was read as CHT PAM inactive.
`CC(C)C(NC(=O)c1ccc(C(C)(C)C)cc1)C(=O)NCC1(N(C)C)CCCCC1` (stereo unspecified) gave CHT PAM inactive.
`CCC(C)Sc1ccc([C@H]2N[C@@](C)(C(=O)OC)[C@H]3C(=O)N(C)C(=O)[C@@H]23)cc1OC` (stereo partly specified) gave CHT PAM inactive.
O=C(CCCC(=O)OCC(=O)c1ccc(Cl)cc1)NC1CCCCC1 was read as CHT PAM inactive.
For Cn1c(Br)nc2c1c(=O)n(CC(O)COc1ccccc1)c(=O)n2C (stereo unspecified) the results were CHT PAM inactive.
O=C(c1nnc(Cc2ccc(Cl)cc2)o1)N1CCOCC1 was read as CHT PAM inactive.
Screening Cc1cc(C)c(S(=O)(=O)Nc2cccc(-n3cnnn3)c2)c(C)c1 returned CHT PAM inactive.
For CCOC(=O)N1CCN(C(=O)c2ccc3c(c2)N(Cc2ccc(C)cc2)CCS3)CC1 the results were CHT PAM inactive.
Screening C#CCOCCOCCOCCNc1nc(N2CCN(C(=O)C([C@@H](C)CC)n3cc(C(N)COC(=O)C(F)(F)F)nn3)CC2)nc(N2CCN(C(=O)[C@H](CCCCN)n3cc(C(N)CC(C)C)nn3)CC2)n1 (stereo partly specified) returned CHT PAM inactive.
`CCCOc1ccc(/C(CC)=N/NC(=O)C2(C)CC2(Br)Br)cc1` (stereo unspecified) gave CHT PAM inactive.
For C=C(C)C(=O)Nc1cccc(C2=NOC3(C2)C[C@@H](C(N)=O)N(C(=O)CCCCC)C3)c1 (stereo partly specified) the results were CHT PAM inactive.
CCOC(=O)/C(C#N)=C/c1ccc(N2CCCCC2)cc1 was read as CHT PAM inactive.
`COc1ccc(/C=C2\SC(=S)N(C(C)C(=O)NC3C=CS(=O)(=O)C3)C2=O)cc1` (stereo unspecified) gave CHT PAM inactive.
C[C@@H]1CC=C[C@H]2[C@H]1C(=O)N(Cc1ccccc1)[C@H]2c1ccc(-c2ccc(F)cc2)cc1F was read as CHT PAM inactive.
For O=C(COC(=O)c1cccnc1Cl)Nc1cc(S(=O)(=O)N2CCCCC2)ccc1Cl the results were CHT PAM inactive.
For COc1ccc(N/C=C(\C#N)S(=O)(=O)c2ccc(Cl)cc2)c(OC)c1 the results were CHT PAM inactive.

Among those listed so far, these contain a tert-butyl group:
For CC1=[N+](CC(=O)NC(C)(C)C)CCc2ccccc21 the results were CHT PAM inactive.
`CC(C)C(NC(=O)c1ccc(C(C)(C)C)cc1)C(=O)NCC1(N(C)C)CCCCC1` (stereo unspecified) gave CHT PAM inactive.
